Assay outcomes from PubChem.
VDR inh: vitamin D3 receptor (human) inhibition; VDR-SRC2-3 peptide fluorescence polarization, 2 h; Potency, µM, inactives show max response, negative = inhibition, hits mostly inhibitors; actives 0.93% (n = 400,000); AID 504847; active = well fitted inhibition curve with a large enough effect; inconclusive = small, poorly fitted or top-dose-only effect, or another doubt; inactive = no such curve, though single readings can be large or run the other way; note: series mostly up to about 120 µM
Target sequence (P11473 whole entry, looked up): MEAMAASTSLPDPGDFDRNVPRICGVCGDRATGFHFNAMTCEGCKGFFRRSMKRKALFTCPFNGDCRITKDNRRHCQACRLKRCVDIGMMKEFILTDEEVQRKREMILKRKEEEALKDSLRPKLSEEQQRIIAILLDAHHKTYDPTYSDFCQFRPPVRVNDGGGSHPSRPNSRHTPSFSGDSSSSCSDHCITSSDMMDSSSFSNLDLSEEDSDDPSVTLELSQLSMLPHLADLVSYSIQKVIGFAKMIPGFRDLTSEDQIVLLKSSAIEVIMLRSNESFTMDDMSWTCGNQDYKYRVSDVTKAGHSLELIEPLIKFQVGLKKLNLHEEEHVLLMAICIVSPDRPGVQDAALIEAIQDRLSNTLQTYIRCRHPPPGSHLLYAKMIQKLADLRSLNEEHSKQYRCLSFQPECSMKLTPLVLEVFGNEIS
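Reagent solutions, kept cold and dark, are dispensed first; compounds are then pinned in at 23 nl, plates briefly spun, and incubated 2 h at ambient temperature. Inhibition of VDR–SRC2-3 peptide binding is read by fluorescence polarization.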
* = called active by the depositor; ? = inconclusive; [ ] = remark or other dose. % is set by controls: 0 for no effect and ±100 for the full control effect; potency is the fitted concentration of half-maximal effect.

VDR inh	SMILES
-46%	Oc1ccc2ccccc2c1CNc1cnc2ccccc2c1
-13%	Clc1ccc(-c2c[n+]3c(n2-c2ccccc2)SCC3)cc1
-10%	S=c1[nH]nc(SCc2ccccc2)c2[nH]cnc12
-21%	O=C(Nc1ccc2c(c1)CCC2)c1ccccc1
-14%	CCC1(c2ccccc2)NC(=O)N(CC(=O)Nc2cc(S(=O)(=O)N3CCCCCC3)ccc2OC)C1=O (centres undefined)
0%	CC(=O)N1CCN(c2ccc(Oc3nnnn3-c3ccccc3)cc2)CC1
-5%	CC(OC(=O)c1ccco1)C(=O)Nc1ccc(C(F)(F)F)cc1 (centres undefined)
2%	CC(C)(C)[C@H]1COC(=O)CCC/C=C/C[C@H](CC(=O)N(CCO)Cc2ccccc2)C(=O)N1
-4%	CC(C)(c1ccccc1)c1ccc(OCCN)cc1
-5%	O=C(NNS(=O)(=O)c1ccc([N+](=O)[O-])cc1)c1ccc([N+](=O)[O-])cc1
26%	Cc1nc2cc(-c3ccc(Cl)cc3)nn2c(NCCN(C)C)c1C
-18%	CCCc1nnn(S(=O)(=O)c2ccc([N+](=O)[O-])cc2)c1CCC
4%	O=C(NCc1ccc(F)cc1Cl)C1CCN(S(=O)(=O)N2CCC3(CC2)OCCO3)CC1
5%	COCCn1c(SCC(=O)NNC(=O)c2ccccc2)nc2ccccc21
15%	COc1cc(-c2noc(C)c2C#Cc2ccccn2)cc(OC)c1OC
16%	CCOC(=O)c1sc(NC(=O)CC2OC(=O)c3ccccc32)nc1C (centres undefined)
-17%	O=C(NCCCNC(=O)c1cc(Cl)ccc1Cl)c1ccco1
-5%	CCCN1C(=O)CSC1=Nc1ccccc1
13%	COc1ccc(C(=O)COC(=O)CCc2nc3ccccc3[nH]c2=O)cc1Br
-11%	Cc1ccc(C)c(NC(=O)CN(C)C(=O)Cc2ccccc2)c1
-10%	CCOc1ccc(NC(=O)c2sc(NC(C)=O)c(C(=O)OC)c2C)cc1
-2%	CC(C)OC(=O)NCCOC(=O)Nc1ccccc1Cl
3%	CCOc1ccc2nc(N(CCN(C)C)C(=O)c3ccc4c(c3)CCCC4)sc2c1
24%	O=C(CSc1nc2ccccc2o1)N1CCN(C(=O)c2ccco2)CC1
6%	Cn1c(C(=O)NCC2CCCO2)cc2oc3ccccc3c21 (centres undefined)

Reprinted from the entries so far, seven compounds:
VDR inh	SMILES
-18%	CCCc1nnn(S(=O)(=O)c2ccc([N+](=O)[O-])cc2)c1CCC
4%	O=C(NCc1ccc(F)cc1Cl)C1CCN(S(=O)(=O)N2CCC3(CC2)OCCO3)CC1
5%	COCCn1c(SCC(=O)NNC(=O)c2ccccc2)nc2ccccc21
15%	COc1cc(-c2noc(C)c2C#Cc2ccccn2)cc(OC)c1OC
16%	CCOC(=O)c1sc(NC(=O)CC2OC(=O)c3ccccc32)nc1C (centres undefined)
-17%	O=C(NCCCNC(=O)c1cc(Cl)ccc1Cl)c1ccco1
-5%	CCCN1C(=O)CSC1=Nc1ccccc1

Continued:
VDR inh	SMILES
-10%	CN(C(=O)c1cccc(NC(=O)Cc2cccc(NC(=O)C3CCCN(C(=O)C4CCCCC4)C3)c2)c1)C1CC1 (centres undefined)
-15%	C=CCn1c(-c2ccc(Cl)cc2)cnc1SC(C)C(N)=O (centres undefined)
-7%	CCN1C(=O)CSC1=Nc1cccc(C(=O)O)c1
14%	O=c1c2ccccc2[nH]c(=S)n1CCCN1CCN(c2ccccc2)CC1
4%	COc1ccc(-n2c(SCC(=O)c3c(N)n(C)c(=O)n(C)c3=O)nc3ccccc32)cc1
-7%	O=C(N/N=C/c1ccc(OC(=O)c2ccccc2Br)cc1)c1ccccn1
1%	CC(C)OC(=O)CSc1nnc2c3ccccc3n(C)c2n1
-2%	CCCc1ccc(-c2ccc(C(=O)O)cc2)nc1
-8%	COc1ccc(CN2CSC(=S)N(Cc3ccc(OC)cc3)C2)cc1
-4%	CN1C(=O)NC(c2ccc(O)cc2)C2=C1CN(c1ccc(O)cc1)C2=O (centres undefined)
7%	Cc1onc(-c2ccccc2)c1C(=O)Nc1nc2c(s1)CCCC2
10%	O=C(OCCN=C1NS(=O)(=O)c2ccccc21)C1CC(=O)N(c2ccc3ccccc3c2)C1 (centres undefined)
3%	Cn1cc(Br)c(C(=O)NNC(=O)c2ccc(Cl)cc2)n1
-2%	CN1C(=O)c2ccc(NC(=O)CSc3ccccc3)cc2C1=O
-2%	O=[N+]([O-])c1cccc(-c2csc(Nc3ccccc3)n2)c1
-6%	COc1ccc2[nH]cc(CCNc3ncncc3-c3cccnc3)c2c1
-6%	COCCNC(=O)C(c1ccc(C)cc1)N(CCOC)C(=O)CCC(=O)Nc1ccccn1 (centres undefined)
34%[activator]	CC(C)C(C)(C#N)NC(=O)CSc1nnc(C(F)(F)F)n1C (centres undefined)
0%	Cc1nc(N2CCCC2)c2c(C(=O)Nc3ccc(Br)cc3F)c(C)oc2n1
9%	COC(=O)c1ccc(C2C(Oc3ccccc3)C(=O)N2CCc2ccc(OC)c(OC)c2)cc1 (centres undefined)
-5%	Cn1cnnc1SCc1ccc(C(=O)N/N=C/c2cccs2)cc1
-9%	Cc1ccc(S(=O)(=O)N2CCN(S(=O)(=O)N(C)C)CC2)cc1
-3%	N#Cc1nc(-c2ccco2)oc1NCc1ccco1
20%	Cc1cccc(N2CCN(C(=O)c3ccc4c(c3)c(C)c(C)n4C)CC2)c1C
0%	Cc1cc(CNC(=O)C2CCC(=O)N(CCc3cccc(F)c3)C2)nn1C (centres undefined)

As entered above:
`Cc1cc(CNC(=O)C2CCC(=O)N(CCc3cccc(F)c3)C2)nn1C` (centres undefined) – VDR inh: 0%
`O=C(N/N=C/c1ccc(OC(=O)c2ccccc2Br)cc1)c1ccccn1` – VDR inh: -7%
`O=[N+]([O-])c1cccc(-c2csc(Nc3ccccc3)n2)c1` – VDR inh: -2%
`CN1C(=O)NC(c2ccc(O)cc2)C2=C1CN(c1ccc(O)cc1)C2=O` (centres undefined) – VDR inh: -4%
`Cc1cccc(N2CCN(C(=O)c3ccc4c(c3)c(C)c(C)n4C)CC2)c1C` – VDR inh: 20%

Next part.
VDR inh	SMILES
-21%	O=C(Nc1cccc(C(F)(F)F)c1)c1cc2nc(-c3ccccc3)cc(C(F)(F)F)n2n1
-17%	COCC(=O)N1CCC2(CCN(Cc3ccc(C#N)cc3)CC2)CC1
-4%	O=C1CC(N2CCSCC2)C(=O)N1c1ccc(Br)cc1 (centres undefined)
9%	O=C(c1cn(CC2CCCCC2)nn1)N1CCN(c2ccc(F)cc2)CC1
-19%	COC(=O)CCCC1=CC2=CC(=O)C(C)(OC(=O)c3cccs3)C(=O)C2=CN1CC(C)C (centres undefined)
9%	Cc1ccc(-n2ncc3c2CCCC3NC(=O)c2ccoc2)cc1C (centres undefined)
-9%	CC(C)(C)C(=O)Nc1ccc(NC(=O)C(C)(C)C)cc1
-16%	Cc1ccc(SCCC(=O)OCC(=O)NCC2CCCCC2)cc1
4%	Cc1cc(C)cc(-n2c(SCC(=O)Nc3ccc4c(c3)OCO4)nc3c([nH]c4ccccc43)c2=O)c1
-15%	Cn1cc(/C=N/NC(N)=S)c2ccccc21
-14%	Cc1nc(COc2cccc(Cl)c2)sc1C(=O)/C=C/N(C)C
-3%	O=C(NN1CCOCC1)c1ccc(Cl)cc1Cl
-9%	CCOC(=O)C(CCCCC(NC(C)=O)(C(=O)OCC)C(=O)OCC)(NC(C)=O)C(=O)OCC
1%	Cc1ccn2c(Nc3ccccc3C)c(-c3ccccc3)nc2c1
13%	C[C@H](CO)N1C[C@H](C)[C@@H](CN(C)S(=O)(=O)c2ccc(F)cc2)Oc2ccc(NS(=O)(=O)c3ccc(F)cc3)cc2C1=O
9%	CC(C)(C)NC(=O)Cn1nnc(-c2ccccc2NC(=O)c2ccco2)n1
-5%	COc1ccc(OC)c(S(=O)(=O)Nc2ccc(OCC(=O)O)cc2)c1
6%	Cn1c(CCN2CCCCC2)nc2cc(NC(=O)NC3CCCCC3)ccc21
3%	COc1ccc(NC(=O)Cn2c(=O)n(Cc3nc(C)no3)c(=O)c3cc4c(cc32)OCO4)cc1OC
-6%	CC(C)c1ccccc1NC(=O)CNC(C)c1ccc(F)cc1 (centres undefined)
-11%	Cn1cc(NC(=O)OCc2ccc(Cl)cc2)c(C(F)(F)F)n1
-2%	O=C1CCCc2c1[nH]c1c(Br)cccc21
2%	Cc1cccc(N2CCN(S(=O)(=O)c3cc4c(cc3Cl)NC(=O)CO4)CC2)c1C
10%	C=CCn1cc(Cl)c(=O)n(CC=C)c1=O
-22%	Cc1ccc(S(=O)(=O)NCc2ccccc2)cc1C(=O)N(C)Cc1ccc(F)cc1
-6%	O=C(CCN1C(=O)/C(=C/c2ccccc2)SC1=S)NCCCN1CCOCC1
6%	Nc1cc(=O)[nH]c(SCC(=O)Nc2cccc(Cl)c2)n1
6%	COc1cccc(Cc2nc3ccccc3nc2SCC(=O)N2CCCCC2C)c1 (centres undefined)
?	Cc1ccc(NC(=S)NNc2ncc(C(F)(F)F)cc2Cl)c(C)c1
6%	CCC(=O)Nc1cc(C)c(NC(=O)CCc2ccccc2)cn1
2%	CN(C)CCNC(=O)CN1C(=O)CCn2nc(-c3cn(C)c4ccccc34)cc21
3%	COC(=O)c1cc(S(=O)(=O)N2CCN(c3cccc(C)c3C)CC2)c[nH]1
-15%	N#C/C(=N\Nc1ccc(Cl)cc1)C(=O)c1ccccc1
18%	Cc1cc(C)nc(NS(=O)(=O)c2ccc(NC(=O)c3cc(=O)c4ccccc4o3)cc2)n1
-9%	CCC(SCC(=O)OC)C(=O)Nc1nnc(C(C)C)s1 (centres undefined)
17%	CCCn1cc(S(=O)(=O)c2ccc(CC)cc2)c(=O)c2cc(F)c(N(CC)CC)cc21
-11%	Cc1c(OCC(=O)NC(Cc2ccc(Cl)cc2)C(=O)O)ccc2c(-c3ccccc3)cc(=O)oc12 (centres undefined)
0%	COc1ccc(Cl)cc1N1C(=NC(=O)C2CCCCC2)SC2CS(=O)(=O)CC21 (centres undefined)
-5%	CC(C)Oc1ccc(N2CC(C(=O)Nc3ccc4c(c3)OCO4)CC2=O)cc1 (centres undefined)
-6%	CCCN(CC(=O)Nc1ccccc1OC)C(=O)CN1C(=O)NC2(CCCCC2)C1=O
-20%	O=C(CSCc1nc2ccccc2[nH]1)N1CCN(c2cccc(Cl)c2)CC1
?	Cc1nn(-c2ccccc2)c(C)c1/C=N/NC(=O)c1ccc(F)cc1
-16%	FC(F)(F)c1cccc(NC(=S)Nc2cccc(NC(=S)Nc3cccc(C(F)(F)F)c3)n2)c1
-18%	Oc1ccccc1CNc1nc2ccccc2n1CCN1CCCCC1
-3%	O=C(NCCNC(=O)c1ccco1)c1ccco1
-8%	Cn1ccsc1=NC(=O)c1ccc(CS(C)(=O)=O)cc1
9%	COc1ccc(C)cc1-n1[nH]nnc1=S
-12%	CC(=O)c1ccc(S(=O)(=O)N2CCCC(N(C)CCc3ccccn3)C2)cc1 (centres undefined)
8%	CCC1(C)Cc2c(sc3nnn(CC(=O)Nc4ccccc4C)c(=O)c23)CO1 (centres undefined)
-3%	Cc1cc(N2CCCCCC2)nc2ccc(F)cc12

Sorted by molecular weight (largest number first): 4 of the compounds above.
VDR inh	SMILES
17%	CCCn1cc(S(=O)(=O)c2ccc(CC)cc2)c(=O)c2cc(F)c(N(CC)CC)cc21
-6%	CCCN(CC(=O)Nc1ccccc1OC)C(=O)CN1C(=O)NC2(CCCCC2)C1=O
-12%	CC(=O)c1ccc(S(=O)(=O)N2CCCC(N(C)CCc3ccccn3)C2)cc1 (centres undefined)
-18%	Oc1ccccc1CNc1nc2ccccc2n1CCN1CCCCC1

Next part:
VDR inh	SMILES
10%	O=C(O)CCCN1C(=O)C(=O)/C(=C(/O)c2ccc(Cl)cc2)C1c1ccccc1 (centres undefined)
12%	CCc1ccccc1NC(=O)c1ccc2c(c1)N(Cc1cc(C)ccc1C)C(=O)c1ccccc1S2(=O)=O
-25%	Cc1ccc(-c2cc(C(=O)Nc3cccnc3)c3ccccc3n2)o1
?	O=C(CSCCO)Nc1cccc([N+](=O)[O-])c1
4%	Nc1ccc(Cl)c(S(=O)(=O)Nc2ccccc2Cl)c1
11%	O=C(Nc1cccc(O)c1)c1cccc(S(=O)(=O)N2CCCC2)c1
4%	COc1cccc2cc(/C(=N/O)c3ccc(Br)cc3)oc12
-9%	Cc1cc(OCCN2CCN(S(=O)(=O)c3ccccc3F)CC2)ccc1C(C)C
-17%	Cc1ccccc1-c1nc(CS(=O)(=O)CC(=O)NCCN2CCCC2)c(C)o1
4%	Cc1ccc(S(=O)(=O)c2ccc(C)cc2)cc1
7%	CCN(CC)CCN(C(=O)c1ccc(CN2CCCCC2)o1)C(C(=O)NC1CCCCC1)c1ccc(F)cc1 (centres undefined)
5%	COc1ccccc1C(=O)NCCC(=O)Nc1ncccc1O
-1%	CCn1c(SCc2nc3ccccc3[nH]2)nnc1-c1cccnc1
12%	COc1cccc(CNC(=O)CCC2CCCN(C(=O)c3cc4ccccc4o3)C2)c1 (centres undefined)
-6%	Cc1nc2sc3c(c2c(=O)o1)CCC3
-11%	COCCCNC(=O)C1c2ccccc2Oc2ccccc21
-20%	CSCC[C@H](NC(=O)c1cccnc1)c1nnc2ccccn12
14%	CCN(CC)c1ccc2cc(-c3nc(-c4cccs4)no3)c(=O)oc2c1
12%	CCOC(=O)C1CCCN(C(=O)C2CCN(c3nnc(-n4cccc4)s3)CC2)C1 (centres undefined)
-7%	Cc1cc(C(=O)Nc2cccc(O)c2)co1
-10%	Cc1c(C(=O)N2CCC(C)CC2)c(S(=O)(=O)NCc2ccccc2)c(C)n1C
7%	CC(=O)c1ccc(NC(=O)CSc2cn[nH]n2)cc1
-20%	COc1cc(/C=N/NC(=O)CC2C(=O)NN=C2C)ccc1O (centres undefined)

This is a subset; the hit share may differ from the screen's.
